Bioassay records: PubChem BioAssay, National Center for Advancing Translational Sciences (NCATS)
2A Renilla – FMDV 2A StopGo reporter, Renilla signal. AID 1745857. actives 0.32% (n = 120,000). HEK cells with a luciferase reporter of 2A StopGo recoding. Potency, µM (top dose mostly 57.5 µM), inactives show top-dose signal change, negative = less light; active means well fitted falling curve with a large enough effect; inconclusive means small, poorly fitted or top-dose-only effect; inactive means no such curve, though single readings can be large or run the other way; also: nearly all actives have a fitted effect of over 55% in size; overnight with compound
2A firefly – lowers the firefly signal of an FMDV 2A StopGo reporter; HEK cells with a luciferase reporter of 2A StopGo recoding; Potency, µM (titrated, usually from 57.5 µM), inactives show at the highest dose signal change, negative = less light; actives 0.23% (n = 120,000); AID 1745856; active = well fitted falling curve with a large enough effect; inconclusive = small, poorly fitted or top-dose-only effect; inactive = no such curve, though single readings can be large or run the other way; also: nearly all actives have a fitted effect of over 60% in size; overnight with compound
Active calls of the source: *; ? = inconclusive; [ ] = another dose, or the depositor's remark. % is scaled to controls: 0 for no effect and ±100 for the full control effect; potency is read from the fitted curve at half-maximal effect.

Value order – 2A firefly | 2A Renilla
- Cc1ccc(Cl)c2c1N[C@@H](c1ccc(C(=O)O)cc1)[C@H]1CC=C[C@@H]21
 : -8% | -8%
- CC(C)c1nnc(NC(=O)C(Oc2ccccc2)c2ccccc2)s1 (stereo unspecified)
 : 16% | -11%
- CCOc1ccc(NC(=O)c2nc3ccccc3nc2N2CCOCC2)cc1
 : 14% | 22%
- CCc1ccc(NS(=O)(=O)c2ccc3[nH]c4c(c3c2)CCCCCC4)cc1
 : -3% | -3%
- COc1cc(/C=N/O)c(Br)cc1OCc1ccccc1
 : 46%[activator] | 4%
- Cc1ccc(NC(=S)NCc2ccc(Cl)cc2)cc1
 : 90%[activator] | 138%[activator]
- CCOC(=O)CN1CCN(c2nc3c(c(=O)[nH]c(=O)n3C)n2Cc2ccccc2)CC1
 : 16% | 2%
- COc1ccc(-c2csc3nc(-c4ccc(F)cc4)oc(=O)c23)cc1
 : 20% | -9%
- CCCn1c(CNC(=O)c2cc(OC)c(OC)c(OC)c2)nc2ccccc21
 : 24% | 0%
- Cc1ccc(CNC(=O)c2ccccc2NC(=O)Cn2c(C)cc(C)c(C#N)c2=O)o1
 : 3% | 14%
- CCc1ccc(C2CC(=O)c3c([nH]c(C(=O)OCCOc4ccccc4)c3C)C2)cc1 (stereo unspecified)
 : -1% | -6%
- CCc1ccccc1N1CC(c2nc3ccccc3n2CC(C)C)CC1=O (stereo unspecified)
 : -10% | 18%
- N#CC1=C(N)Oc2c(ccc3ccccc23)C1c1ccc2c(c1)OCO2 (stereo unspecified)
 : 0% | 24%
- CCCC(=O)Nc1nnc(SCc2cc(=O)c3ccc(C)cc3[nH]2)s1
 : 2.5µM* | 2µM*
- COc1cccc(CNC(=O)CSC2=Nc3ccccc3N=C(c3ccc(F)cc3)C2)c1
 : 2% | -6%
- CC(=O)Nc1ccc(-c2nc3ccccc3o2)cc1
 : 189%[activator] | 27%
- N#Cc1cccc(CSc2nnc(-c3c[nH]c4ccccc34)o2)c1
 : 0% | 8%
- C=C(C)COc1ccc2c(=O)c(-c3ccc(OC)c(OC)c3)c(C)oc2c1
 : -7% | -20%
- COc1ccc2c(c1C)CCCC2
 : -1% | 5%
- CCc1ccc(CNC(=O)CN(c2ccc(C)cc2)S(=O)(=O)N(C)C)cc1
 : 19% | 54%[activator]
- CCOc1ccc2oc(=O)cc(CN3CCN(CC(=O)N4CCC(C)CC4)CC3)c2c1
 : 1% | -3%
- CC(=O)Nc1ccc(S(=O)(=O)Nc2nc3ccccc3nc2Nc2ccc3ccccc3c2)cc1
 : 0% | 26%
- CCOC(=O)c1cc(-c2ccccc2)n(-c2cccc(C(=O)NC(C)(C)C)c2)c1C
 : -3% | 5%
- CCc1ccc(NC(=O)c2ccc3c(c2)NC(=O)CS3)cc1
 : 0% | 23%
- O=C(CCOc1cccc(F)c1)N1CCC(c2nnc3n2CCC3)CC1
 : 15% | -5%
- Cc1c(-c2ccc(F)cc2)[n+](=O)c(-c2ccc(F)cc2)c(C)n1[O-]
 : 0% | -1%[1.06 µM]
- Cn1c(=O)c2c(ncn2CCC(=O)Nc2ccc(F)cc2F)n(C)c1=O
 : 3% | 0%
- CC(=O)c1cccc(NC(=O)CN2CCN(C)CC2)c1
 : 0% | -9%
- CCOc1ccccc1Nc1nnc(-c2cc3cc(OC)ccc3oc2=O)s1
 : -5% | 3%
- COC(=O)c1sc2cccc(F)c2c1S(=O)(=O)N1CCN(c2ccc(F)cc2)CC1
 : -14% | 46%[activator]
- Cc1ccc(-c2nn(CC(=O)N3CCCC3)c(=O)c3ccccc23)cc1
 : 13% | 3%
- Cn1nnnc1-c1cccc(NCC(=O)NC2(C#N)CCCC2)c1
 : 3% | 6%
- COc1ccc2oc(=O)cc(CN3CCN(C(=O)c4ccc(OC)c(OC)c4)CC3)c2c1
 : -10% | -12%
- COc1cc(/C=C(/C#N)C(=O)OC(C)C)cc(Br)c1O
 : 39%[activator] | -11%
- Brc1cccc(C=Nc2cccc3c2CCCC3)c1
 : 1% | 8%
- Cc1nc(NCCN(C)C)c(C#N)c2c1CCCC2
 : -15% | -1%
- Nc1ncnc(Nc2cc(Cl)ccc2Cl)c1[N+](=O)[O-]
 : -4% | 7%
- CSc1ccccc1NC(=O)CN(C)C(=O)c1cc(S(=O)(=O)N2CCOCC2)ccc1Cl
 : -1% | -2%
- O=C(c1cc(-c2ccccc2Cl)nc2ccccc12)N1CCOCC1
 : -1% | 1%
- CC1(C)CC(=O)C2=C(C1)OC(N)=C(C#N)C2c1ccc(OC(=O)c2ccccc2)cc1 (stereo unspecified)
 : -5% | 3%
- COc1ccc(N2CCN(S(=O)(=O)CCNC(=O)Cc3ccc(Cl)cc3)CC2)cc1
 : -3% | 9%
- CC1Cc2ccccc2N1S(=O)(=O)c1c(F)cc(F)cc1Br (stereo unspecified)
 : 10% | 22%
- CCC1CCCCN1C(=O)Cn1nc2cc(C)nc(N3CCc4ccccc4C3)n2c1=O (stereo unspecified)
 : 15% | 7%
- O=C(NCCc1c[nH]c2ccccc12)Nc1ccccc1C(F)(F)F
 : 2% | 15%
- CC(C)NC(=O)C1CC1
 : -2% | 6%
- COc1cccc(N2CCN(C(=O)c3cc4cc5cc(C)ccc5nc4s3)CC2)c1
 : -3% | -9%
- CN1CCC(NC(=O)c2cc(Cl)cc(Cl)c2)CC1
 : -6% | -5%
- CCc1ccc(C(=O)Nc2cccc(C(C)=O)c2)cc1S(=O)(=O)N1CCOCC1
 : -6% | 26%
- COC(=O)c1cc(NC/C=C/c2ccccc2)ccc1N1CCOCC1
 : 4% | 4%
- CC(C)c1ccc(S(=O)(=O)Nc2ccc3oc4c(c3c2)C(=O)CC(C)(C)C4)cc1
 : 3% | -1%
- Fc1ccc(CNC(=S)NCc2ccc(Cl)c(Cl)c2)cc1
 : -15% | 95%[activator]
- Cc1cnc(C(=O)Oc2ccc(C(C)(C)C)cc2C)cn1
 : -21% | -11%
- Cc1cccc(OC(C)CCN2CCC(C(O)(c3ccccc3)c3ccccc3)CC2)c1 (stereo unspecified)
 : -9% | -4%
- CCOC(=O)c1cc(-c2ccc(OC)cc2)nc2ccccc12
 : 0% | 8%
- COC(=O)[C@]12C[C@H](CC(=O)NCc3cccc4ccccc34)C(=O)N(Cc3cccc4ccccc34)C1=C[C@H](C(C)(C)C)O[C@@H]2C
 : 13% | -2%
- Cc1ccc(Nc2cc(C(=O)NC3CCCC3)c3ccccc3n2)c(C)c1
 : -10% | -9%
- Cc1cccc(C)c1NC(=O)c1ccc2nc(CCc3ccccc3)oc2c1
 : -9% | ?
- Cc1ccsc1C(=O)NNC(=S)NC(C)c1ccccc1 (stereo unspecified)
 : 26% | -8%[1.06 µM]
- Cc1ccccc1CNC(=O)Cc1n[nH]c(=O)c2ccccc12
 : 72%[activator] | 9%
- COc1ccc(-c2cc(C(=O)NCc3ccc(C)cc3)c3cc(C(C)C)ccc3n2)cc1
 : -16% | -3%

Next part
Value order – 2A firefly | 2A Renilla
- O[C@@H](CNC[C@H](O)[C@H]1CCc2cc(F)ccc2O1)[C@@H]1CCc2cc(F)ccc2O1
 : -16%[11.5 µM] | ?
- CC(=O)c1ccc(OCc2ccccc2)cc1
 : 71%[activator] | 22%
- COc1ccc(-c2noc(CCC(=O)N3CCc4sccc4C3c3cccs3)n2)cc1OC (stereo unspecified)
 : ? | -25%
- COc1ccc(C2c3c(-c4c(C)cc(C)cc4O)n[nH]c3C(=O)N2Cc2ccco2)cc1 (stereo unspecified)
 : -18% | 12%
- COc1ccc(C2=C(C=O)C(c3ccccc3)c3ccccc3O2)cc1 (stereo unspecified)
 : 1% | 22%
- CC1=C(C(=O)OC(C)C)C(c2ccc(C(C)C)cc2)N2C(=O)CCSC2=N1 (stereo unspecified)
 : 5% | 56%[activator]
- COc1ccc(-c2nc3ccccc3n3c(-c4ccccc4)c4c(=O)n(C)c(=O)n(C)c4c23)cc1
 : -10% | -9%
- CC(C)Nc1nc(-c2ccccc2O)nc2ccccc12
 : 0% | 8%
- O=C(CCC1NC(=O)c2ccccc2NC1=O)NCCC(c1ccccc1)c1ccccc1 (stereo unspecified)
 : -4% | -5%
- Cc1ccc(Nc2ccc(N3CCN(S(=O)(=O)c4ccc(C)cc4)CC3)nn2)cc1
 : -7% | -1%
- CC(C)(C)c1ccc(C(=O)NCC(c2ccco2)S(=O)(=O)c2ccc(F)cc2)cc1 (stereo unspecified)
 : ? | ?
- COc1ccc(Nc2nc(N)c(C(=O)c3ccc(Br)cc3)s2)cc1OC
 : 41%[activator] | 16%
- CCCC(C)NC(=O)c1cccc2c(C)c(C)[nH]c12 (stereo unspecified)
 : 44%[activator] | 6%
- CCc1ccc(C2=C(C)C(N3CCC(C(=O)NC4CCCC4)CC3)=NS2(=O)=O)cc1
 : 37%[activator] | -5%
- CC(CCc1ccc2c(c1)OCO2)NN (stereo unspecified)
 : 1% | -4%
- CN(C)CCN(CC1CCCCC1)C(=O)Nc1ccc(F)cc1
 : -7% | -9%
- CN(C)S(=O)(=O)n1cc(/C=C(\NC(=O)c2ccccc2F)C(=O)NCCCn2ccnc2)c2ccccc21
 : 53%[activator] | 187%[activator]
- COc1ccc2cc(/C=C(\NC(=O)c3ccccc3)C(=O)N(C)C)c(Cl)nc2c1
 : 0% | 1%
- O=C(c1ccc(F)cc1Cl)N1CCC(CCc2ccc(O)cc2)CC1
 : ? | ?
- Cc1nc(-c2ccncc2)[nH]c(=O)c1CC(=O)N(C)C1CCCCCCC1
 : 6% | 8%
- Cc1ccc(Cn2cc(CN3[C@@H](Cc4ccccc4)COc4cc(Br)ccc4S3(=O)=O)nn2)cc1
 : 4% | 0%
- O=C(NCCOc1ccc2ccccc2c1)c1n[nH]c(=O)c2ccccc12
 : -1% | -5%
- N#Cc1ccc(OCCOC(=O)c2ccccc2F)cc1
 : 4% | -4%
- COc1ccc(Br)cc1CSc1nnc(C2CC2)n1C1CC1
 : -11% | 33%[activator]
- COc1ccc(C(=O)N=c2sc3cc(Cl)ccc3n2C)cc1
 : 3% | -9%
- Cc1ccc(C2=CC(c3c(F)cccc3Cl)n3ncnc3N2)cc1C (stereo unspecified)
 : -6% | -4%
- Cc1c(OCC(=O)Nc2ccc(F)cc2)c(=O)ccn1C
 : 109%[activator] | 25%
- COc1ccc(C)cc1NC(=O)c1cccc(-n2cccc2)c1
 : -13% | -10%
- CCCNC(=O)Cn1nc(C)n2nc(-c3ccc(CC)cc3)cc2c1=O
 : 89%[activator] | 28%
- COc1cc(O)ccc1-c1nc2ccc(Br)cn2c1Nc1ccccc1C
 : -13% | -2%
- COc1ccc(CC(=O)NCCS(=O)(=O)N2CCN(c3ccccc3F)CC2)cc1OC
 : -13% | 0%
- c1ccc2c(CSc3nc4ccccc4s3)cccc2c1
 : 123%[activator] | -5%
- O=C(Nc1cccc(S(=O)(=O)N2CCCCC2)c1)c1nc(-c2ccccc2)n(-c2ccccc2)n1
 : 55%[activator] | 5%
- COc1cccc(C2C(C(=O)Nc3ccccc3)=C(C)Nc3nnnn32)c1OC (stereo unspecified)
 : -15% | -28%
- COc1ccc(Oc2c(C)oc3cc(OCc4ccc(F)cc4)ccc3c2=O)cc1
 : ? | 22%
- CCOC(=O)c1ccc(N2C(=O)c3n[nH]c(-c4ccco4)c3C2c2ccc(C)cc2)cc1 (stereo unspecified)
 : ? | ?
- COc1ccc(-c2nc3scc(CCNS(=O)(=O)c4ccccc4F)n3n2)cc1
 : -6% | 79%[activator]
- CCc1nnc(CC)n1N
 : 8% | 14%
- CC(CCc1ccccc1)NC(=O)C1CC1c1ccccc1 (stereo unspecified)
 : 0% | 16%
- CCN(Cc1ccccc1)S(=O)(=O)c1ccc(F)c(C(=O)Nc2cc(C)ccc2OC)c1
 : -13% | 10%

Of the compounds above, these contain a tert-butyl group:
Value order – 2A firefly | 2A Renilla
- CCOC(=O)c1cc(-c2ccccc2)n(-c2cccc(C(=O)NC(C)(C)C)c2)c1C
 : -3% | 5%
- Cc1cnc(C(=O)Oc2ccc(C(C)(C)C)cc2C)cn1
 : -21% | -11%
- COC(=O)[C@]12C[C@H](CC(=O)NCc3cccc4ccccc34)C(=O)N(Cc3cccc4ccccc34)C1=C[C@H](C(C)(C)C)O[C@@H]2C
 : 13% | -2%
- CC(C)(C)c1ccc(C(=O)NCC(c2ccco2)S(=O)(=O)c2ccc(F)cc2)cc1 (stereo unspecified)
 : ? | ?

(cont.)
Value order – 2A firefly | 2A Renilla
- Cc1ccc(S(=O)(=O)N2CCCC2C(=O)n2nc(C)c(Sc3ccccc3)c2C)cc1 (stereo unspecified)
 : 8% | 12%
- Cc1csc(NC(=O)CCc2c(C)nn(C)c2C)n1
 : 12% | -1%
- COc1ccc(CCC(=O)NCCc2csc(-c3cccc(C)c3)n2)cc1
 : 7% | -10%
- COc1cc(-c2nnc(SCC(=O)Oc3ccccc3Cl)o2)cc(OC)c1OC
 : 0% | -11%
- O=C1CCCC2=C1C(c1cccc(F)c1F)Nc1nonc1N2 (stereo unspecified)
 : -6% | -3%
- Cc1ccc(C2=[N+]([O-])C(C)(C)N(O)C2C)cc1 (stereo unspecified)
 : 13% | 4%
- CC(=O)c1c(C)[nH]c(-c2csc(CC(=O)Nc3ccc(C)cc3C)n2)c1C
 : 0% | 209%[activator]
- CC(C)=CC1C(C(=O)OCc2cccc(Oc3ccccc3)c2)C1(C)C (stereo unspecified)
 : 0%[11.5 µM] | 0%
- COCCNC(=O)c1c(NC(=O)c2cc(=O)c3cc(Cl)ccc3o2)sc2c1CCCC2
 : -10% | -3%
- CC(NC(=O)NCCNc1ncccn1)c1ccccn1 (stereo unspecified)
 : -8% | -16%
- CCOc1ccc(N2CC(NC(=O)C(=O)c3c[nH]c4ccccc34)CC2=O)cc1 (stereo unspecified)
 : -10% | -17%
- Nc1nnc(SCC(=O)Nc2cccc(F)c2)s1
 : -13% | -17%
- O=C(Nc1nccs1)c1occc1-c1ccccc1
 : 0% | 2%

These rows are one share of the data; count on the stated rates, not on these rows.
